Assay outcomes: PubChem, National Center for Advancing Translational Sciences (NCATS)
Six1-Eya2 inh – Six1/Eya2 interaction inhibition; Q15475+O00167; AlphaScreen GST-Six1/His-Eya2 binding, biochemical; active compounds read low; control for the full effect not named in the record; activity change, % (concentration not given with the values); 360,000 tested, 0.56% active; AID 651725; in the data active = activity change below about -65%; inconclusive = about -30% to -65%; inactive = above about -30%; further: on the % scale 0 is the no-effect control and ±100 the full control effect
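Compounds are tested against tagged Six1 and Eya2 proteins bridged by glutathione donor and nickel acceptor beads; after a one-hour incubation at 37 °C without light, AlphaScreen emission is recorded.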
PINK1 expr mod – PINK1 expression modulation | 410,000 tested, 0.2% active | Potency, µM (titrated, usually from 76.6 µM), inactives show at the top dose activation (PINK1 increase), actives largely listed as activators | PINK1 immunofluorescence, high-content cytometry, 24 h; active = well fitted activation curve with a large enough effect; inconclusive = small, poorly fitted or top-dose-only effect; inactive = flat fitted curve, though single readings scatter; cell line not stated here;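 further: potency means the concentration at half of the fitted maximal effect; % of control where 0% means no effect; nearly all actives have a fitted effect of over 65% in size; a mitochondrial uncoupler was the plate control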
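Readout is PINK1 immunofluorescence, quantified alongside mitochondrial, cell and nuclear markers by laser-scanning microplate cytometry. Cells from a stable line were exposed to compound titrations (5 concentrations) for 24 hours, with CCCP controls.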
TRPML1 agonist – human mucolipin-1 channel agonism. Q9GZU1. TRPML1-expressing cells, Ca2+ dye fluorescence, FDSS; host cell line not named in the record; reference of the full effect not given here. activation, % (concentration not given with the values). 410,000 tested, 0.12% active. AID 624414; in the data active = activation above about 50%; inconclusive = about 30% to 50%; inactive = below about 30%; further: 0% is about no effect; the text of the record puts the active cut at 80%
Target sequence (Q9GZU1 whole entry, looked up): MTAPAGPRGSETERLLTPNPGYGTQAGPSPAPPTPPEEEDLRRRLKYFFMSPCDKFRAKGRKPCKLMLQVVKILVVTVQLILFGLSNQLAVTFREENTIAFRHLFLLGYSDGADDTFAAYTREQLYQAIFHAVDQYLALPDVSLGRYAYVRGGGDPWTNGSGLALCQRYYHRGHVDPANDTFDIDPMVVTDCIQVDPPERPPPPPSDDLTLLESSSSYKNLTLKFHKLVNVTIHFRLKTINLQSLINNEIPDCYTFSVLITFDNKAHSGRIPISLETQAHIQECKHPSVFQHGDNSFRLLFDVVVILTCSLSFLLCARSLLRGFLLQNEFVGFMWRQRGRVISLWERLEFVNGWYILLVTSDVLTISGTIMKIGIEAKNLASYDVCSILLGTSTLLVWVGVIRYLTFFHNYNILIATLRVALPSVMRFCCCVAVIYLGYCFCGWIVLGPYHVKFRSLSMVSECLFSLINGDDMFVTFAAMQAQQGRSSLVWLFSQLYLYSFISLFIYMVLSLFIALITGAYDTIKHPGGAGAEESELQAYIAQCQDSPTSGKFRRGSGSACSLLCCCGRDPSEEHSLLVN
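Cells: TRPML1-DL, 1X Tet inducer, ~16 h at 37 degrees C/5% CO2. Dye: ABD Ca8 no-wash + quencher, 45-90 min RT. Read: 10 s baseline, compound add, 110 s agonist phase; 54-4 EC80 (4uM final), 110 s antagonist phase.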
CtBP-E1A blk – CtBP/E1A binding inhibition; AlphaScreen GST-E1A/His-CtBP binding, 1536-well; active compounds read low; control for the full effect not named in the record; activity change, % (concentration not given with the values); 340,000 tested, 0.49% active; AID 651724; in the data active means activity change below about -65%; inconclusive means about -30% to -65%; inactive means above about -30%; further: on the % scale 0 is the no-effect control and ±100 the full control effect
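GST-E1A and His-tagged CtBP (125 nM each as 5X stock) were preincubated with pin-transferred compound for 2 h at 37 °C in the dark, then glutathione donor and nickel acceptor beads were added for 1 h before AlphaScreen reading.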
TRPML1 blocker – blocks the human TRPML1 channel; TRPML1-inducible cells, Ca2+ dye fluorescence, FDSS; active compounds read low; inhibition of EC80 agonist-evoked calcium signal; activity change, negative = inhibition, % (test concentration not listed); AID 624415; Q9GZU1; 390,000 tested, 0.02% active; in the data active means activity change below about -50%; inconclusive means about -30% to -50%; inactive means above about -30%;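 further: stimulus is agonist 54-4 at its EC80 concentration; on the % scale 0 is the no-effect control and ±100 the full control effect; compound concentration not given in the record; the text of the record puts the active cut at -80%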
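Tet-induced TRPML1-DL cells loaded with Ca8 no-wash calcium dye were read kinetically on FDSS. Compound addition was followed by EC80 agonist 54-4 (4 uM final); inhibition was read over 110 s.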
D2 agonist – human D2 receptor agonism in beta-arrestin assay | P14416 | DiscoveRx PathHunter D2 beta-arrestin, luminescence, 90 min; 100% = 57 uM dopamine signal | activation, % (test concentration not listed) | 360,000 tested, 0.084% active | AID 624465; in the data active = activation above about 40%; inconclusive = about 15% to 40%; inactive = below about 15%; further: compound concentration not given in the record; the text of the record calls up to 30% inactive
Target sequence (P14416 whole entry, looked up): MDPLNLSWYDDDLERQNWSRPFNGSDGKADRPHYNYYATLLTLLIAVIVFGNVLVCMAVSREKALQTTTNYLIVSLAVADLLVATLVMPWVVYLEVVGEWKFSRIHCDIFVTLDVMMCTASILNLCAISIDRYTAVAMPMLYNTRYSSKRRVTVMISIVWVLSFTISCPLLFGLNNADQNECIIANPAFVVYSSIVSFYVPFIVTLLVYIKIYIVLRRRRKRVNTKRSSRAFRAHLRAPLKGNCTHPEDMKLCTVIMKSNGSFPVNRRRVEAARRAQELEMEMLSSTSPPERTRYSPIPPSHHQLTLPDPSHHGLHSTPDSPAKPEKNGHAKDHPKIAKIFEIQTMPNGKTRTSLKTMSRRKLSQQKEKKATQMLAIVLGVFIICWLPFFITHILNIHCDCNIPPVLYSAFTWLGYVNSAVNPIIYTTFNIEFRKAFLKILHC
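DiscoveRx PathHunter D2 beta-arrestin cells (2,100/well) attached overnight, then compound-stimulated 90 min at 37 C in HBSS/10 mM HEPES/0.1% Tween-20 buffer; beta-galactosidase complementation read by luminescence after 1 h at ambient temperature. Dopamine 57 uM final (EC100) as control.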
Active calls of the source: *; u = inconclusive; x = not tested or not shown; & = joins results of further samples; [ ] = another dose, or the depositor's remark.

nr	Compound	Six1-Eya2 inh	PINK1 expr mod	TRPML1 agonist	CtBP-E1A blk	TRPML1 blocker	D2 agonist
1	Cc1ccc(NC(=O)CSc2nc(=O)cc(N)n2-c2ccccc2)cc1	1	-0.2%&-1.4%	-0.3&-0.1	1	-6&-10	1.4
2	COc1cc(/C=C2\C(=N)N3N=CSC3=NC2=O)cc(Br)c1OC(=O)c1ccco1	-29	0.1%	1.0	x	2	-1.3
3	CN1N=C(/C=C/c2ccccc2)CCC1=O	1	-0.9%	0.0	6	-19	0.0
4	O=c1c(S(=O)(=O)c2ccccc2)cn(Cc2ccc(F)cc2)c2cc(N3CCCCC3)c(F)cc12	x	-0.8%	1.0	x	11	x
5	Cc1c(Cl)c([N+](=O)[O-])nn1CCCC(=O)Nc1cccnc1	-2	1.9%	-0.7	x	8	-2.6
6	CC1CCCC(C)N1C(=O)COC(=O)C1CCN(S(=O)(=O)c2ccc3c(c2)OCCO3)CC1 (centres undefined)	1	1.0%	0.3	-2	23	5.6
7	O=C1Cn2c(nc3ccccc32)-c2ccccc2N1	-2	-2.6%[38.3 µM]	0.1	-11	1	0.5
8	Cc1ccc(CNC(=O)CO/N=C/c2ccc(C(C)(C)C)cc2)cc1	6	11%	2.1	-4	2	-2.9
9	CCOc1ccccc1N(CC(=O)Nc1cc(OC)ccc1OC)S(=O)(=O)c1ccccc1	-14	0.8%	1.1	-9	81	-2.1
10	Cc1c(C(=O)O)[nH]c2c1C(=O)CC(c1ccc(C(C)(C)C)cc1)C2 (centres undefined)	-12	2.6%	x	6	x	-6.8
11	O=C(NCCc1ccc2c(c1)OCCO2)c1cc(S(=O)(=O)N2CCCC2)ccc1Cl	-5	3.2%	-1.0	3	1	-5.4
12	CC(C)CCNC(=O)CN(C(=O)CCC(=O)Nc1ccccn1)c1ccc2c(c1)OCO2	24	-0.5%	1.1	0	-2	-3.1

Reprinted from the part before: 3 compounds, then new ones.
nr	Compound	Six1-Eya2 inh	PINK1 expr mod	TRPML1 agonist	CtBP-E1A blk	TRPML1 blocker	D2 agonist
10	Cc1c(C(=O)O)[nH]c2c1C(=O)CC(c1ccc(C(C)(C)C)cc1)C2 (centres undefined)	-12	2.6%	x	6	x	-6.8
11	O=C(NCCc1ccc2c(c1)OCCO2)c1cc(S(=O)(=O)N2CCCC2)ccc1Cl	-5	3.2%	-1.0	3	1	-5.4
12	CC(C)CCNC(=O)CN(C(=O)CCC(=O)Nc1ccccn1)c1ccc2c(c1)OCO2	24	-0.5%	1.1	0	-2	-3.1
13	C/C(=C1/SC(N2CCCC2)=NC1=O)c1ccc(Br)cc1	-8	0.0%	-0.9	-2	-11	-0.3
14	C/C=C/c1ccc(OCC(=O)NNC(=O)CN(C)S(=O)(=O)c2ccc(C)cc2)c(OC)c1	2	0.7%	-2.0	x	10	-1.6
15	CCCCN1CC(COCc2ccccc2)Oc2cc(Br)ccc2S1(=O)=O (centres undefined)	9	0.0%	-0.4	21	25	0.4
16	NS(=O)(=O)c1ccc(CCNc2ccccc2[N+](=O)[O-])cc1	-16	-0.5%	-0.1	-9	4	-1.2
17	O=C(Nc1ccccc1)c1cccc(S(=O)(=O)Oc2ccc([N+](=O)[O-])cc2)c1	-14	0.6%	0.8	-13	24	u
18	Cc1cc(C)c2nncn2n1	2	0.2%	-0.7	4	-2	-0.6
19	CC(=O)NCCC(Cc1ccccc1)c1ccco1 (centres undefined)	11	-2.1%	0.4	1	16	-4.4
20	Cc1ccc(NC(=O)C2CCN(S(=O)(=O)c3cnc[nH]3)CC2)cc1C	2	5.3%	-0.4	-1	38	-3.8
21	O=C(Nc1ccc(Cl)c(Cl)c1)c1cccc(S(=O)(=O)NCc2cccnc2)c1	u	u	0.4	1	9	-3.2
22	CCCNC(=O)COC(=O)/C(C#N)=C/c1cc(C)n(CCC)c1C	21	9.3%	1.7	-2	2	-0.9
23	CC(=O)Nc1cccc(NC(=O)CSc2ccc(C(F)(F)F)cc2[N+](=O)[O-])c1	2	1.8%	-0.4	-3	0	1.6
24	Cc1ccc(NC(=O)CCC(=O)NNS(=O)(=O)c2ccccc2)c(C)c1	2	-2.1%	-0.5	-11	5	-2.0

(next part)
nr	Compound	Six1-Eya2 inh	PINK1 expr mod	TRPML1 agonist	CtBP-E1A blk	TRPML1 blocker	D2 agonist
25	CCc1ccc(NC(=O)c2ccc(NS(=O)(=O)c3c(C)noc3C)cc2)cc1	x	3.1%	-0.6	x	2	x
26	N#CC1=C(N)Oc2cc(N)ccc2C1c1ccsc1 (centres undefined)	0	6.2%	0.3	10	12	1.2
27	Cc1ccc(C)c(N2C(=O)CC(Cc3ccc(Cl)cc3)C2=O)c1 (centres undefined)	12	-0.1%	-0.2	3	3	-2.7
28	O=C(NCc1ccco1)c1ccc(Cn2c(=O)c3sccc3n(Cc3ccc(F)cc3)c2=O)cc1	-9	-0.4%	-0.1	-10	2	-2.4
29	CN(CC(=O)Nc1cccc(F)c1)S(=O)(=O)c1ccc2c(c1)n(C)c(=O)c(=O)n2C	x	3.0%	-0.2	x	3	x
30	O=S(=O)(Nc1cccc2cccnc12)c1ccc2ccccc2c1	x	-0.6%	2.9	x	5	x
31	Cc1ccc2nc(-c3ccc(NS(=O)(=O)c4ccc(F)c(F)c4)cc3)sc2c1	10	u	0.2	7	0	2.6
32	COc1ccccc1CN(C)C(=O)COC(=O)c1cc(C)oc1C	3	2.5%	1.0	-2	5	1.7
33	COc1ccc(C=C2Cc3ccccc3C2=O)cc1	3	2.6%	-1.0	0	x	-4.3
34	O=C(COC(=O)COc1ccc2ccccc2c1)Nc1cc(C(F)(F)F)ccc1N1CCOCC1	6	1.8%	0.7	x	-2	2.4
35	O=C(N/N=C\c1c(O)ccc2ccccc12)c1ccc(S(=O)(=O)N2CCCCC2)cc1	-17	-1.8%	17	5	-10	0.0
36	COc1cc(C(=O)OCCCOC(=O)c2cc(OC)c(OC)c(OC)c2)cc(OC)c1OC	2	-0.4%	-0.3	8	-14	-1.1

Next part.
nr	Compound	Six1-Eya2 inh	PINK1 expr mod	TRPML1 agonist	CtBP-E1A blk	TRPML1 blocker	D2 agonist
37	CC(C)[C@H](NC(=O)c1ccco1)C(=O)OCC(=O)N1CC(=O)Nc2ccccc21	7	-0.1%	-0.5	12	-25	1.6
38	O=C(NCc1ccccc1)c1ccc(Cl)c(NC2=NC3CS(=O)(=O)CC3S2)c1 (centres undefined)	2	0.7%	-0.4	-9	-12	-3.2
39	O=S1(=O)CCN(Cc2ccccc2Cl)CC1	6	1.2%	-1.0	0	-14	-3.3
40	CCOC(=O)c1sc2ccccc2c1OC(=O)c1ccccc1	22	-1.2%	1.2	38	10	-2.6
41	COc1ccc(C(=O)Nc2ccc(OC)c(OC)c2)cc1	-1	3.1%[38.3 µM]	0.2	9	-10	-4.0
42	CSc1ccc(NC(=O)N2CCN(c3nc4ccccc4s3)CC2)cc1	-1	12%[38.3 µM]	0.0	-2	-3	-2.0
43	CC(C)CCCN1C(Nc2ccccc2)=NC[C@@H]1CC(C)C	-3	-0.2%	-0.4	0	51	0.8
44	Cc1ccc(CSCCNC(=O)/C=C/c2ccccc2Cl)cc1	4	15%[38.3 µM]	2.7	8	-16	-2.0
45	Cc1cc(C)cc(NC(=S)N2CCC(C(=O)c3ccc(F)cc3)CC2)c1	6	-0.9%	-0.4	x	-1	2.4
46	COc1ccc2nc(SCC(=O)NC3CC3)c(C#N)cc2c1	-4	1.1%	-0.8	11	-11	4.1
47	COc1cc(OC)cc(C(=O)NC2CCSc3ccccc32)c1 (centres undefined)	7	1.0%	0.7	5	9	-2.3
48	COc1ccc(S(=O)(=O)NCCS(=O)(=O)N2CCN(c3ccccc3)CC2)cc1C	x	0.8%	1.2	x	2	x

Further results:
nr	Compound	Six1-Eya2 inh	PINK1 expr mod	TRPML1 agonist	CtBP-E1A blk	TRPML1 blocker	D2 agonist
49	Cc1nc(-c2ccccc2)cs1	4	-15%[38.3 µM]	-0.8	6	-8	-2.8
50	O=C(NCC1CCCO1)c1ccc2c(c1)OCO2 (centres undefined)	4	0.4%[38.3 µM]	0.5	2	-8	4.9
51	CCc1ccc(C(=O)Cc2cc3cccc(OC)c3oc2=O)cc1	-3	3.8%	1.7	x	-4	3.1
52	Cc1nc(Nc2ccc(S(=O)(=O)N3CCCCC3C)cc2)c2nnn(Cc3ccccc3)c2n1 (centres undefined)	2	5.0%	1.2	0	23	3.1
53	O=C(c1cc(Cl)nc2ccccc12)N(Cc1nnc(-c2ccc(Cl)cc2)o1)C1CC1	-3	-2.1%	0.3	10	32	-4.0
54	CCOC(=O)C1(Cc2cccc(Cl)c2)CCCN(C(=O)c2ccc(C)nc2)C1 (centres undefined)	-17	-0.5%	0.0	-16	-5	-2.8
55	CCOc1ccccc1NC(=O)CCC(=O)O	0	x	0.4	6	12	-0.3
56	CCOc1ccc(C(=O)NC(C)C2COc3ccccc3O2)cc1 (centres undefined)	5	-0.8%	0.0	9	10	1.5
57	Cc1[nH]n(-c2ccccc2)c(=O)c1C(C[N+](=O)[O-])c1ccc(Cl)cc1 (centres undefined)	0	8.1%	3.9	1	5	-4.8
58	COc1ccccc1-n1c(SCC(=O)O)nc2c(sc(=S)n2-c2ccc(C)c(C)c2)c1=O	-5	-0.7%	-0.4	-4	2	-2.4
59	Cc1cc(C(=O)CN2C(=O)c3ccccc3S2(=O)=O)c(C)n1-c1ccccc1	-18	1.4%	1.2	-7	9	-1.1
60	Cc1cc(NC(=O)NC(=O)c2ccccc2NC(=O)C(C)N)ccc1Oc1ncc(Br)cn1 (centres undefined)	-3	9.3%	-0.1	2	-2	-3.5

Continued:
nr	Compound	Six1-Eya2 inh	PINK1 expr mod	TRPML1 agonist	CtBP-E1A blk	TRPML1 blocker	D2 agonist
61	O=C(/C=C/c1ccco1)Nc1cccnc1Cl	-4	0.6%	0.1	x	-22	-0.5
62	COc1ccc(/C=C(/NC(=O)c2ccc(Br)cc2)C(=O)N2CCOCC2)cc1	-9	1.4%	0.2	3	-1	4.9
63	CCCCCC(=O)NCc1c(C(F)(F)F)nn(C)c1N1CCOCC1	10	-1.9%	-0.5	4	-4	-2.3
64	CC(C)(C)[C@H]1C=C(C(N)=O)O[C@@H](OCCCCO)C1	7	-0.1%	0.3	7	-6	-1.0
65	Cc1cc(NC(=O)C2CC(c3ccc(F)cc3)=NO2)n(-c2ccccc2)n1 (centres undefined)	1	-0.8%	0.1	9	17	-0.6
